HSV augment: increases HSV replication in cells; HSV replication augmentation in cells, fold increase; maximum fold increase; actives 0.005% (n = 220,000);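 active means peak rise of 1.5-fold or more in the series; tested in PC3 cells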;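 further: first round at 10 µM; read as green reporter fluorescence; hits show the peak of a series up to 25 µM; 1 = signal of infected wells without compound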
GALR2 ag: agonists of human galanin receptor 2 (GALR2); AID 803; activation, %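 (tested at 5 µM)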; O43603; GALR2-expressing cells, agonist activation read-out; actives 0.48% (n = 140,000);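 active means above mean plus 3 SD of all compounds, about 5% in these data, not always enough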;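 further: 0% = vehicle buffer wells and 100% = reference agonist at full effect; tested in CHO reporter cells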
Target sequence (O43603 whole entry, looked up): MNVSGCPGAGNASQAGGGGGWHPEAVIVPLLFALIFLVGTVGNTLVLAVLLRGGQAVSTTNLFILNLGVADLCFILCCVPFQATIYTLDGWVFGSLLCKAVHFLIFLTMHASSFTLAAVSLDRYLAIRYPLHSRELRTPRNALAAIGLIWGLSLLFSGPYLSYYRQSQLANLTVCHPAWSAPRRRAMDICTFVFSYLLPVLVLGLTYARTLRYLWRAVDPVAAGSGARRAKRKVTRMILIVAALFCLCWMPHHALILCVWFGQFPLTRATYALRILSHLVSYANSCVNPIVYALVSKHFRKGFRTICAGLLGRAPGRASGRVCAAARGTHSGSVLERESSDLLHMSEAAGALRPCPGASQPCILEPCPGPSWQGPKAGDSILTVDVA
RGS16-Gao HTS: RGS16-Galphao interaction regulator (human) | binding response (% of control), % at 10 µM | actives 0.38% (n = 220,000) | AID 1441 | O15492+P09471 | bead-based flow cytometry RGS16-Galphao binding, fluorescence; actives lie on both sides;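 active means below 25% or above 175%, edge rows of some plates excepted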;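 further: Galphao activated by GDP with aluminum fluoride before binding; 100% = wells without compound and 0% = beads without RGS; some results beyond the cut were filed as inactive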
PKD1 kinase inh: PKD1 (human) kinase inhibition | Q15139 | PKD1 kinase fluorescence polarization assay | inhibition, %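 (about 10 µM by stock and volumes)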 | actives 0.056% (n = 200,000) | AID 797;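 active means inhibition of 50% or more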;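 further: controls were vehicle for no effect and a reference inhibitor for full effect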
Insulin prom inh: TRM-6 insulin promoter activity inhibition. TRM-6 cells (human fetal islet line), insulin promoter-eGFP reporter, imaging; reporter expression induced with tamoxifen. inhibition, % at 2 µM. actives 0.9% (n = 130,000);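 active means inhibition above the mean plus 3 SD, with well images judged a real hit on visual review, cut at about 60% in these data, passing the limit was not always enough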
Insulin prom inh cell count: second read-out of Insulin prom inh, no call of its own (marks repeat the call); normalized cell count, %; measured here: cell count, toxicity; reference of the scale not given here;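 cells exposed to compound for 48 h; stained nuclei by imaging scaled within each plate; lower means fewer cells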
HSV augment primary fold: recorded beside HSV augment, whose call it bears; fold increase; compound at 10 µM; measured here: primary screen fold increase 10 uM; tested in PC3 cells;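 GFP signal in the first replicate; 1 = infected wells without compound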
* = called active by the depositor; i = inactive; . = not tested or not shown.

SMILES,PKD1 kinase inh,HSV augment,RGS16-Gao HTS,Insulin prom inh,GALR2 ag,HSV augment primary fold,Insulin prom inh cell count
CCN1CCN(C(=S)c2ccc(Br)cc2)CC1,-2.1,i,79.1,-2.9,-1.3,1.12,126.2
CC(=O)Nc1cccc(-n2nnc(SCC(=O)Nc3ccccc3)n2)c1,.,i,91.4,.,.,0.98,.
C=CC(=O)N=c1sc2ccccc2n1-c1ccccc1,-7.2,i,79.8,21.9,.,0.74,27.2
CCCN1CCC(N2CCCC(C(=O)O)C2)CC1 (stereo not drawn),1.7,i,99.6,11.1,.,0.99,71.2
Cc1cccc(NC(=O)C2CCCN2S(=O)(=O)c2ccc3c(c2)n(C)c(=O)c(=O)n3C)c1 (stereo not drawn),2.7,.,83.7,-31.7,-0.8,.,65.6
CN(C)CCNC(=O)c1cc(Br)ccc1Cl,-0.5,i,101.1,2.9,-3.7,1.16,54.5
Cc1nn2c(-c3ccncc3)ccnc2c1Br,-4.8,i,101.3,.,.,0.88,.
CC(=O)c1ccc(N2CCN(CCC#N)CC2)c(F)c1,26.0,i,104.5,20.0,-2.9,1.07,52.8
O=C(Cc1cccs1)NNC(=S)NC(=O)c1ccccc1,-1.1,i,98.2,3.7,-1.3,0.97,76.3
CCOP(=O)(OCC)c1nc(-c2ccc(OC)cc2)oc1N1CCOCC1,.,i,101.7,.,.,0.65,.
C=CCOc1ccccc1CNCc1cccnc1,24.5,i,102.6,43.8,-1.6,0.8,79.5
Cc1ccc(C)c(S(=O)(=O)NCCOC(=O)Nc2sc(=S)n(C)c2C)c1,2.6,i,106.9,-46.7,-1.6,0.69,120.9
Cc1cccc(C(=O)N2CCN(Cc3ccc4c(c3)OCO4)CC2)c1,-8.8,i,101.0,.,-1.9,1.01,.
CCC(=O)Nc1ccc2c(c1)C(=O)N(C)C2=O,-7.4,i,100.4,4.2,-1.5,1.01,116.0
CN(c1ccccc1)S(=O)(=O)c1cccc(C(=O)N2CCN(c3ccccn3)CC2)c1,-3.3,i,36.0,.,-1.4,0.96,.
Cn1ccnc1SCC(=O)Nc1nc2c(F)c(F)c(F)cc2s1,4.6,i,106.3,.,.,0.81,.
NS(=O)(=O)c1ccc(NC(=S)NC(=O)C2CCCCC2)cc1,2.5,i,102.2,42.9,.,0.9,97.4
O=C(NC(=S)NCCN1CCOCC1)c1cccc(Cl)c1,6.2,i,104.7,13.8,-1.6,0.82,120.6
CCOc1ccccc1C1CC(=O)Nc2c1c(=O)n(C)c(=O)n2C (stereo not drawn),5.9,i,112.1,.,-2.0,0.72,.
O=C(CN(C1CCCCC1)S(=O)(=O)c1ccc(F)cc1)NCc1ccncc1,-4.6,i,103.3,-100.0,-1.0,0.97,67.5
O=C(C1CCCN(S(=O)(=O)Cc2ccccc2)C1)N1CCC(Cc2ccccc2)CC1 (stereo not drawn),4.7,i,103.0,.,-2.2,1.06,.
c1ccc2c(c1)ccc1ncccc12,-4.4,i,97.1,42.9,.,0.93,141.8
Cc1csc(=Nc2c(C)n(C)n(-c3ccccc3)c2=O)n1Cc1ccccc1,-9.0,i,102.3,.,0.0,0.96,.
COc1ccc(CN2CCN(S(=O)(=O)c3ccc(NC(C)=O)cc3)CC2)cc1OC,8.5,i,99.4,16.7,0.6,0.73,107.9
CCCCNC(=S)Nc1ccccc1Cc1ccccc1,-3.8,i,106.3,-54.5,.,0.91,33.6
COc1ccc(C(=O)N2CCN(S(=O)(=O)c3cc(Cl)ccc3OC)CC2)cc1,-2.4,i,108.7,-50.0,-0.9,0.89,113.9
O=C(OCC(=O)N1N=C(c2ccc(Cl)cc2)CC1c1ccco1)c1ccco1 (stereo not drawn),-2.5,i,105.2,.,.,0.53,.
COc1cccc(C(=O)Nc2nc(SCc3ccc(Cl)cc3)n[nH]2)c1,.,i,104.7,.,.,1,.
O=C1CC(C(=O)NC2CCCCC2)C2(CCCCC2)O1 (stereo not drawn),5.2,i,99.4,.,.,1.04,.
O=C(NCc1cccnc1)/C(=C/c1ccc(-c2ccc(Cl)cc2)o1)S(=O)(=O)c1ccccc1,0.1,i,99.0,-21.7,0.6,0.46,110.5

For reference, part of the list above:
SMILES,PKD1 kinase inh,HSV augment,RGS16-Gao HTS,Insulin prom inh,GALR2 ag,HSV augment primary fold,Insulin prom inh cell count
CCN1CCN(C(=S)c2ccc(Br)cc2)CC1,-2.1,i,79.1,-2.9,-1.3,1.12,126.2
CC(=O)Nc1cccc(-n2nnc(SCC(=O)Nc3ccccc3)n2)c1,.,i,91.4,.,.,0.98,.

Additional compounds follow.
SMILES,PKD1 kinase inh,HSV augment,RGS16-Gao HTS,Insulin prom inh,GALR2 ag,HSV augment primary fold,Insulin prom inh cell count
O=C(Nc1cnn(Cc2ccc(Cl)cc2Cl)c1)c1cc(-c2cccs2)on1,-8.7,i,93.7,-62.5,-2.0,1.07,81.5
CCOC(=O)C1CCCN(S(=O)(=O)c2cc(OCC(=O)NC3CCCCC3)c(C)cc2Cl)C1 (stereo not drawn),-5.8,i,320.9,66.7,-0.7,1.01,151.8
O=C(NCc1ccccc1)c1cnc2n(c1=O)CCS2,10.1,i,104.8,-37.5,-0.3,0.96,155.2
CC1CCCCC1NS(=O)(=O)c1ccc(S(=O)(=O)NCc2ccncc2)cc1 (stereo not drawn),-7.1,i,94.3,.,-0.3,0.98,.
Cc1oc(-c2ccccc2Cl)nc1CS(=O)CC(=O)NCc1cccs1 (stereo not drawn),-0.6,i,103.2,.,-2.3,0.88,.
CCn1nc(C)c(NC(=O)c2ccc(Cl)cc2)c1C,0.0,i,99.6,.,.,0.98,.
CCC1(CC)Cc2ccccc2C(N)=C1C#N,0.0,i,101.4,4.1,0.2,0.93,115.2
O=C(O)c1ccc2c(=O)n3c(nc2c1)/C(=C/c1ccccc1C(F)(F)F)CCCC3,-5.2,i,102.5,.,-0.9,1.04,.
CCCCn1c(SCC(=O)N2CCCC2)nc2cc(S(N)(=O)=O)ccc21,-2.1,i,102.8,14.3,.,0.93,118.9
O=C(CSc1nnc(-c2c[nH]c3ccccc23)o1)c1ccc(-c2ccccc2)cc1,-5.1,i,103.5,.,-0.8,0.98,.
COC(=O)CN1C(=S)N(c2ccc(Cl)cc2)C(=O)C1CC(=O)Nc1ccc(F)cc1 (stereo not drawn),-2.9,i,65.3,.,-0.6,1.18,.
CCN(CC)S(=O)(=O)c1cc(-c2nn(C)c(=O)c3ccccc23)ccc1C,4.2,i,99.4,-6.7,-0.4,0.917,109.4
CCOC(=O)C1CCN(c2nc3c(C)cccn3c(=O)c2/C=C(\C#N)S(=O)(=O)c2ccccc2)CC1,.,i,104.3,.,.,0.99,.
CC(C)[C@@H]1NC(=O)c2cc([N+](=O)[O-])cc(I)c2NCCC[C@@H](C(N)=O)NC(=O)[C@H](CO)NC1=O,-12.9,i,91.2,-27.3,-1.0,0.92,59.6
COCCN(CC(=O)Nc1ccccc1C)S(=O)(=O)c1ccc(S(=O)(=O)N2CCCC2)cc1,-1.1,.,101.3,7.0,-1.9,.,133.5
COc1ccc(-c2nnc3sc(C(C)N4C(=O)c5ccccc5C4=O)nn23)cc1 (stereo not drawn),-20.4,i,98.7,.,-0.5,1.27,.
CCC(C)Sc1nc2c(c(=O)[nH]c(=O)n2C)n1CCc1ccccc1 (stereo not drawn),1.6,i,88.1,42.9,1.3,0.88,68.1
O=C(NNS(=O)(=O)c1ccccc1F)c1sccc1-n1cccc1,0.1,i,103.6,.,.,0.83,.
O=S(=O)(c1ccc(S(=O)(=O)N2CCN(C/C=C/c3ccccc3)CC2)cc1)N1CCCC1,-0.4,i,118.8,.,-2.1,0.987,.
COc1ccccc1NC(=S)NCCc1ccc(F)cc1,-1.7,i,100.7,.,.,0.88,.
FCCCOc1ccc(-c2nccc(-c3ccc(Br)cc3)n2)cc1,-1.5,i,98.2,16.7,-1.6,0.96,131.7
O=C(CSc1nnc(-c2cnccn2)n1Cc1ccco1)c1ccccc1,-6.6,i,100.5,-68.8,1.3,0.89,82.7
CC(C)c1ccc(C(O)P(=O)(OCc2ccccc2)c2ccc(N(C)C)cc2)cc1 (stereo not drawn),.,i,101.2,.,.,0.97,.
CCN(CC)S(=O)(=O)c1ccc(=O)[nH]c1,3.1,i,100.6,.,.,0.92,.
CCOC(=O)C(OC(=O)c1sc(=S)n(C)c1C)C(C)=O (stereo not drawn),1.0,i,100.8,-90.9,-2.9,1.04,62.9
O=[N+]([O-])C1=C(Nc2cccc3ccccc23)CS(=O)(=O)C1,-2.9,i,101.3,0.0,-0.2,1.05,81.7
CC(=O)c1cccc(NC(=O)C(OC(=O)c2cccs2)c2ccccc2)c1 (stereo not drawn),-12.7,i,105.2,-41.2,-1.8,0.89,81.2
O=c1[nH][nH]c(C(F)(F)F)c1C=NCc1ccccc1Cl,0.2,i,92.0,7.1,-3.1,1.04,110.6
O=C(c1cccs1)[C@@H]1[C@@H]2C(=O)N(Cc3ccc4c(c3)OCO4)C(=O)[C@@H]2C2c3ccccc3C=CN21 (stereo partly drawn),-0.9,.,96.9,-13.9,-0.4,.,196.3
O=C(N/N=C/c1cccc(C(F)(F)F)c1)c1cc2c(s1)-c1ccccc1CC2,-6.1,i,101.0,36.7,-2.5,0.84,115.4

Among those listed so far, ten contain fluorine:
SMILES,PKD1 kinase inh,HSV augment,RGS16-Gao HTS,Insulin prom inh,GALR2 ag,HSV augment primary fold,Insulin prom inh cell count
CC(=O)c1ccc(N2CCN(CCC#N)CC2)c(F)c1,26.0,i,104.5,20.0,-2.9,1.07,52.8
Cn1ccnc1SCC(=O)Nc1nc2c(F)c(F)c(F)cc2s1,4.6,i,106.3,.,.,0.81,.
O=C(CN(C1CCCCC1)S(=O)(=O)c1ccc(F)cc1)NCc1ccncc1,-4.6,i,103.3,-100.0,-1.0,0.97,67.5
O=C(O)c1ccc2c(=O)n3c(nc2c1)/C(=C/c1ccccc1C(F)(F)F)CCCC3,-5.2,i,102.5,.,-0.9,1.04,.
COC(=O)CN1C(=S)N(c2ccc(Cl)cc2)C(=O)C1CC(=O)Nc1ccc(F)cc1 (stereo not drawn),-2.9,i,65.3,.,-0.6,1.18,.
O=C(NNS(=O)(=O)c1ccccc1F)c1sccc1-n1cccc1,0.1,i,103.6,.,.,0.83,.
COc1ccccc1NC(=S)NCCc1ccc(F)cc1,-1.7,i,100.7,.,.,0.88,.
FCCCOc1ccc(-c2nccc(-c3ccc(Br)cc3)n2)cc1,-1.5,i,98.2,16.7,-1.6,0.96,131.7
O=c1[nH][nH]c(C(F)(F)F)c1C=NCc1ccccc1Cl,0.2,i,92.0,7.1,-3.1,1.04,110.6
O=C(N/N=C/c1cccc(C(F)(F)F)c1)c1cc2c(s1)-c1ccccc1CC2,-6.1,i,101.0,36.7,-2.5,0.84,115.4
